Source: PubChem BioAssay (National Center for Advancing Translational Sciences (NCATS))
AmpC inh no det – blocks E. coli AmpC beta-lactamase in absence of detergent; AmpC nitrocefin hydrolysis, absorbance 480 nm, no detergent; potencies from a single point are estimates; Potency, µM (highest dose often 28.7 µM), for the others: top-dose activity change, negative = inhibition; 71,000 compounds, 1.8% hits; AID 585; active = falling curve, for most hits resting on a single point; inconclusive = weak or doubtful change; inactive = flat or rising curve; note: % of control where 0% means no effect; about half of the hits show no inhibition at the top dose; a quarter of the inactives give rising signals
Target sequence (P00811 whole entry, looked up): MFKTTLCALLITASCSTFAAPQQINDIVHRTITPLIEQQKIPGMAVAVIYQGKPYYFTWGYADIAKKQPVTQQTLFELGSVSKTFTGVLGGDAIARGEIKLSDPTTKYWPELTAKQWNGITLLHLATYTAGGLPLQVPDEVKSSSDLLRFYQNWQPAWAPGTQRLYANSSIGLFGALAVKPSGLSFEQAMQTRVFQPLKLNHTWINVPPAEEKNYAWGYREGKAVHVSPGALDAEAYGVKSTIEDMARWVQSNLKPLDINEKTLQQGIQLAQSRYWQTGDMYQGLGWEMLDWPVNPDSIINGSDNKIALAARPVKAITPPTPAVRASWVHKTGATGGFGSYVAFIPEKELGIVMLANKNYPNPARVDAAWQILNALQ
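AmpC, 20 mM phosphate pH 7.0; 15 min cpd preinc, RT; start with nitrocefin (800 uM stock); A480 kinetic read, 20 s intervals, 4 min. No-enzyme wells = negative control.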
Active calls of the source: *; ? = inconclusive; [ ] = another dose, or the depositor's remark. Potency is the fitted concentration of half-maximal effect. The list is partial (hit frequency here may not be typical).

SMILES | AmpC inh no det
Cc1ccc(S(=O)(=O)N2CCCC2C(=O)Nc2nccs2)cc1 (stereo not drawn) | -4.7%
O=C(Oc1ccc2c(c1)CN(Cc1ccccc1)CO2)c1ccccc1 | 5.9%[5.75 µM]
CCOC(=O)c1c(=O)n(O)c2ccc(C)cc2[n+]1[O-] | 1.0%
O=C(CCCc1c[nH]c2ccccc12)N1CCN(c2ccc(N3CCOCC3)nn2)CC1 | 127.7%
COc1ccc(C(=O)Nc2ccccc2-c2nnn(CC(=O)NCc3ccco3)n2)cc1 | -16.2%
COc1ccc(-c2ccc(SCC(=O)NCc3ccco3)nn2)cc1OC | 4.6%
O=C(Nc1ccc(F)cc1F)c1cc(-c2ccco2)on1 | -13.2%
COc1ccccc1N=C1SC(C)CN1C(=O)C1CCC1 (stereo not drawn) | 20.2%
O=C(c1c(F)cccc1F)N1CCC(O)(c2cccnc2)CC1 | 1.3%
COc1cc(CNc2ccccc2SC)ccc1O | -7.7%
Cc1ccc(N2C(=O)c3ccccc3C2=O)cc1Cl | -14.3%
Cc1noc(C)c1CSCC(=O)NC1=NCCS1 | 11.3%
Cc1sc2ncnc(NCC(c3ccco3)N(C)C)c2c1C (stereo not drawn) | 18.7%
O=c1oc2ccccc2c2c1ncn2CCN1CCOCC1 | -2.4%
C=CCOc1c(OC)cc(Cl)cc1C1NC(=O)NC(C)=C1C(C)=O (stereo not drawn) | 1.5%
CCC(Sc1nncn1C)C(=O)Nc1nnc(-c2ccccc2Cl)s1 (stereo not drawn) | 57.7%
Cc1noc(C)c1-c1cc(Nc2ccccc2)ncn1 | 6.4%
COc1cc(C2c3c(oc4c(C)cc(C)cc4c3=O)C(=O)N2Cc2cccnc2)cc(OC)c1OC (stereo not drawn) | 55.9%
COc1ccccc1CNc1cc(-c2ccccc2CN(C)C)ncn1 | 32.0%
CCc1nc(SCC(=O)Nc2ccc3c(c2)OCCO3)c2oc3ccccc3c2n1 | 33.3%
O=C(CN(c1ccc(F)cc1)S(=O)(=O)c1ccc2c(c1)OCCO2)NCC1CCCO1 (stereo not drawn) | 34.8%
CC(=NCCCn1ccnc1)c1c(O)n(C)c(=O)n(C)c1=O | -9.6%
Cc1noc(C)c1COC(=O)c1cc(=O)[nH]c2ccccc12 | 19.9%
COc1cc(-c2c(C#N)c(N)nc3c2CCCC3)ccc1O | -9.7%
CCCC(=O)Nc1cnc(NC(=O)c2cccc(F)c2)cc1C | 6.5%
Cc1ccc(N2C(=O)SC(N(CC(=O)O)c3cccc(C)c3)C2=O)cc1 (stereo not drawn) | 0.9%
COCCn1nnnc1C(c1ccccc1OC)N1CCc2ccccc2C1 (stereo not drawn) | 64.9%
COC(=O)C1=C(C)NC(C)=C(C(=O)OC)C1c1ccc(NC(C)=O)cc1 | 20.8%
Cc1ccc(C)c(Cn2cnc3c(nnn3-c3ccc(F)cc3)c2=O)c1 | -4.5%
CCCC(=O)c1ccc(N2CCN(C(=O)c3ccccc3Br)CC2)c(F)c1 | 86.6%
c1ccc(-n2ncc3c2ncn2nnnc32)cc1 | -11.7%
Cc1nnc(SCSc2nnc(C)s2)s1 | -5.8%
CC(C)NC(=O)N1CCC2(CC1)CCN(C(=O)c1csnn1)CC2 | -1.8%
CCN1C(=O)C(O)(CC(=O)c2ccc3c(c2)OCCO3)c2ccccc21 (stereo not drawn) | 23.5%
COc1cc(C2C(C#N)=C(C)NC3=C2C(=O)CC(C)(C)C3)ccc1OCCO (stereo not drawn) | 0.7%
COc1ncnc2c1NC(=O)CS2 | -5.1%
COc1cccc(OC)c1C(=O)Nn1c(C2CCC2)nc2ccccc2c1=O | 11.1%
COc1ccc(CC2CCOC2=O)cc1 (stereo not drawn) | 12.6%
Cc1cc(CN(C)C)c(O)c(C2(C)CCCCC2)c1 | -11.1%
COc1ccc(N2CCN(C(=O)CSc3nnc(-c4cccnc4)n3-c3ccccc3)CC2)cc1 | 121.6%
Cc1cccc(N2C(=O)C3C4C=CC(C4)C3C2=O)c1 (stereo not drawn) | 14.5%
O=C(CCC(=O)N(CC(=O)NC1CCCC1)C1CCCC1)Nc1ccccn1 | 23.7%
Cc1ccccc1-n1nc2c(c1NC(=O)c1ccc(Br)o1)CSC2 | ?
C(=N\n1cnnc1)/c1cn(Cc2ccccc2)c2ccccc12 | 98.7%
CC1CN(S(=O)(=O)Cc2ccccc2)CC(C)O1 (stereo not drawn) | 2.8%
COc1cccc(C(=O)Nc2ccccc2N2CCCC2)c1 | -2.2%
CC1CCCC(C)N1C(=O)CSc1nc2ncnc(N)c2[nH]1 (stereo not drawn) | -4.1%
COc1ccc(CCNCc2ccccn2)cc1OC | -4.7%
NCCC[C@@H](CC(=O)N[C@@H]1CCNC[C@H]1C(=O)N[C@H](CC(=O)N[C@@H](CCC(=O)O)CC(=O)O)Cc1c[nH]c2ccccc12)NC(=O)C[C@H](CO)NC(=O)[C@@H]1CNCC[C@H]1N | 11.4%
CCOc1cc(C2C(C#N)=C(N)SC(N)=C2C#N)ccc1OCCN1CCOCC1 | 32.6%
CCCn1c(=O)c2ccccc2n2c(SCCOc3ccc(Cl)cc3)nnc12 | 63.8%
CCc1ccc(-c2nc(-c3ccncc3)no2)cc1 | 31.7%
COc1ccc(-c2cc(C(=O)NCc3cccnc3)no2)cc1 | 5.0%
COc1ccc(NC(=O)C2CCN(C(=O)c3ccccc3)CC2)c(OC)c1 | 30.3%
O=C(NCc1n[nH]c(=S)n1-c1ccc(F)cc1)c1ccc(S(=O)(=O)N2CCCC2)cc1 | 5.0%
CCc1ccc(OCC(=O)Nc2ncc3c(n2)CC(C)(C)CC3=O)cc1 | 33.8%
O=C(O)c1cccc(-n2cccc2/C=N/O)c1 | -9.1%
CCOc1ccc(OCC)c(S(=O)(=O)NCc2ccc3c(c2)OCO3)c1 | 3.98µM*[single pt active]
N#Cc1ccc(CN2CC3(CCN(C(=O)c4cccc(F)c4)CC3)C2)cc1 | 68.6%
CC(C)CSc1nc2c(c(=O)[nH]c(=O)n2C)n1CCc1ccccc1 | -1.7%

Rewritten as labelled records: two of the compounds above.
CCOc1ccc(OCC)c(S(=O)(=O)NCc2ccc3c(c2)OCO3)c1
  AmpC inh no det: 3.98µM*[single pt active]

N#Cc1ccc(CN2CC3(CCN(C(=O)c4cccc(F)c4)CC3)C2)cc1
  AmpC inh no det: 68.6%

Carrying on:
SMILES | AmpC inh no det
C(=NC12CN3CN(CN(C3)C1)C2)c1ccc2c(c1)OCO2 | -6.0%
COC(=O)c1cccc(NCN2C(=O)c3ccccc3C2=O)c1 | 4.7%
COc1ncc2nc(-c3cn(C)c4ccccc34)c(=O)n(-c3ccccc3)c2n1 | 1.2%
Brc1cccc(-c2ccccc2)c1 | 3.1%
CCOc1ccc(N2CCn3c2nc2c3c(=O)n(CCc3ccccc3)c(=O)n2C)cc1 | 27.2%
COc1ccc(CCNS(=O)(=O)c2cccc(S(=O)(=O)N3CCCC3)c2)cc1OC | 19.0%
COC(=O)c1cccc(NC(=O)CSc2ncn[nH]2)c1 | -9.4%
CC(C)c1c(O)nc(SCCN(C)C)[nH]c1=O | -0.3%
Cn1cccc1Cc1nnc(SCC(=O)Nc2ccc3c(c2)OCO3)n1CCc1ccccc1 | 54.9%
COC(=O)c1ccccc1NC(=O)Nc1cccs1 | ?
Cc1ccc2[nH]c(=O)c(CN(Cc3ccccc3)Cc3nnnn3C3CCCC3)cc2c1 | 53.5%
NS(=O)(=O)c1ccc(NC(=O)c2ccccc2C(=O)N2CCCCC2)cc1 | -11.8%
Cc1ccc(C)c(Cn2nnc3c(=O)[nH]c(C4CCCN(C(=O)C5CCC5)C4)nc32)c1 (stereo not drawn) | 86.6%
CN(CCC#N)C(=O)CSc1ncnc2sc(-c3ccccc3)cc12 | 172.5%
OCc1nc2ccccc2n1CCCOc1ccc(Br)cc1 | 115.2%
Cc1ccc(Cc2c(C)nc3nc(SCC(=O)NCc4ccco4)nn3c2C)cc1 | 42.3%
COc1cccc2cc(C(=O)n3ccc(C)n3)c(=O)oc12 | 10µM*
COc1cccc(NC(=O)CSc2nnc(Cc3cccn3C)n2-c2ccc(F)cc2)c1 | 99.1%
Nc1nc(N)c(N=Nc2ccc(C(=O)O)c(O)c2)c(N)n1 | -3.9%[5.75 µM]
O=C(O)C1CCCN1S(=O)(=O)c1ccc(Cl)c(Cl)c1 (stereo not drawn) | -3.6%
O=C(Cn1c(NCCCO)nc2ccccc21)c1ccc(Br)cc1 | 50.5%
Cc1ccc(-c2nnc(N3CCCCC3)c3ccccc23)cc1S(=O)(=O)N1CCN(C)CC1 | 149.2%
COc1ccc(C2CC(=O)c3cnc(N4CCN(Cc5ccccc5)CC4)nc3C2)cc1 (stereo not drawn) | 57.8%
CCc1cc2c(NCCO)ncnc2s1 | 8.9%
CC(=O)SCC(=O)N=c1sc2cc(F)ccc2n1C | 15.3%
CCN(CC)c1ccc(NC(=O)C2CCCN(S(=O)(=O)c3cnc[nH]3)C2)c(C)c1 (stereo not drawn) | 16.9%
COCC(=O)NC1CC2CCCC(C1)N2Cc1ccccc1 (stereo not drawn) | -5.2%
COc1cccc(C(=O)NC(C)C(c2cccs2)N2CCN(C)CC2)c1 (stereo not drawn) | -8.4%
OCCN1C2CCC1CC(O)(c1ccc(F)cc1)C2 (stereo not drawn) | -6.8%
CC(C)c1nc2oc3c(NCc4ccccn4)ncnc3c2c2c1COC(C)(C)C2 | 127.3%
COc1ccc(CCNC(=O)CSc2cc(=O)[nH]c(N)n2)cc1OC | -6.0%
COc1ccccc1NC(=O)CCC(=O)Nc1ccccc1OC | 2.0%
Cc1cc(/N=C/C=C2\N(C)c3ccccc3C2(C)C)n(CCC#N)n1 | 126.6%
O=C(COc1ccc(S(=O)(=O)N2CCCC2)cc1Cl)N1CCN(c2ccccc2)CC1 | 74.9%
COc1cc2c(cc1OC)C(c1ccsc1)CC(=O)N2 (stereo not drawn) | -8.7%
COc1ccc(-c2n[nH]c(C)c2-c2cnn(-c3ccccc3)c2)c(O)c1 | 3.0%

Grouped by structure: the compounds so far with two or more sulfur atoms (eight)
SMILES | AmpC inh no det
Cc1ccc(S(=O)(=O)N2CCCC2C(=O)Nc2nccs2)cc1 (stereo not drawn) | -4.7%
Cc1noc(C)c1CSCC(=O)NC1=NCCS1 | 11.3%
CCC(Sc1nncn1C)C(=O)Nc1nnc(-c2ccccc2Cl)s1 (stereo not drawn) | 57.7%
Cc1nnc(SCSc2nnc(C)s2)s1 | -5.8%
O=C(NCc1n[nH]c(=S)n1-c1ccc(F)cc1)c1ccc(S(=O)(=O)N2CCCC2)cc1 | 5.0%
COc1ccc(CCNS(=O)(=O)c2cccc(S(=O)(=O)N3CCCC3)c2)cc1OC | 19.0%
CN(CCC#N)C(=O)CSc1ncnc2sc(-c3ccccc3)cc12 | 172.5%
CC(=O)SCC(=O)N=c1sc2cc(F)ccc2n1C | 15.3%

Continued:
SMILES | AmpC inh no det
CCCCN1C(=O)NC(=O)C2(Cc3cc(C)ccc3N(C)C2)C1=O (stereo not drawn) | 3.9%
O=c1c(-c2ccc(F)cc2)nc2cnc(N3CCOCC3)nc2n1Cc1cccs1 | -0.7%
CCCCN1CC(COc2ccccc2)OC1=O (stereo not drawn) | 5.2%
CCCSc1nnc(Cn2c(=O)sc3ccccc32)n1-c1ccccc1 | 52.5%
Cc1nnc(SCc2cccc(Oc3ccccc3)c2)n1N | 17.5%
Brc1ccc(OCCOCCN2CCOCC2)cc1 | 12.4%
Nn1c(Cc2cccc3ccccc23)nnc1SCC(=O)NC1CCS(=O)(=O)C1 (stereo not drawn) | -3.0%
CCOC(=O)N1CCC(NC(=O)C2CCCCN2S(=O)(=O)c2ccc(F)cc2)CC1 (stereo not drawn) | 74.8%
COc1ccccc1CCn1c(=O)c(-c2cn(C)c3ccccc23)nc2cncnc21 | -6.3%
COc1ccccc1C1CC(=O)NC(C)=C1C(=O)OCC1CCCO1 (stereo not drawn) | 23.1%
Cc1ccc(NC(=O)CSc2nnc(-c3ccncc3)n2C)cc1C | 16.8%
CC1(C)Cc2cccc(OCC(=O)N3CCN(S(=O)(=O)c4ccccc4)CC3)c2O1 | 61.3%
COCCN1C(=O)C(=O)/C(=C(/O)c2ccc(OC(C)C)cc2)C1c1cccnc1 (stereo not drawn) | -7.5%
CCOc1ccc(C2c3c(oc4ccccc4c3=O)C(=O)N2CCCN2CCOCC2)cc1 (stereo not drawn) | 109.7%
Cc1cc2cc(CN(Cc3ccc4c(c3)OCO4)C(=O)c3ccco3)c(=O)[nH]c2cc1C | 76.6%
CCOC(=O)COc1nc(C)c(Br)c(OC)n1 | 18.4%
CC(=O)N1CCC2(CC1)CCN(c1ccccc1)CC2 | 14.0%
COc1cc2c(cc1OC)-c1nnnn1C(C)(C)C2 | 10.6%
COc1ccc(OCC(O)Cn2c(=N)n(Cc3ccccc3)c3ccccc32)cc1 (stereo not drawn) | 5.4%
COc1ccc(S(=O)(=O)N2CCCC(C(=O)NCc3ccccn3)C2)cc1 (stereo not drawn) | 11.2%
CCN(Cc1ccccc1)C(c1cccs1)c1nnnn1C1CCCCC1 (stereo not drawn) | 7.3%
COC(=O)c1c(NC(=O)CN2CCCC(C)C2)c2c(C)cccc2n1C (stereo not drawn) | 32.3%
CS(=O)(=O)N(CC(=O)NCc1ccccn1)Cc1ccc(Cl)cc1 | 7.9%
COc1cccc2[nH]c(-c3ccccn3)nc12 | 4.1%[5.75 µM]
